Screening data as filed in PubChem BioAssay.
NPYLR7 agonist – agonists of mosquito NPYLR7 receptor, primary screen, cell-based, Aedes aegypti, calcium fluorescence, mosquito biting behavior. hit rate 0.15% among 270,000. Aedes aegypti neuropeptide Y-like receptor 7 (NPYLR7). activation, % at 10 µM. HEK293T NPYLR7/Galpha15, GCaMP6s calcium fluorescence; in the data active = activation above about 40%;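 note: 0% = vehicle and 100% = reference agonist at the receptor; some compounds past the cut are filed as inactive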
NPYLR7 agonist max-min – also measured in NPYLR7 agonist; calls as there; activation, %; measured here: Max-Min RFU normalised activation; some inactives read as strong as hits;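 span of the calcium signal over five minutes; 0% = vehicle and 100% = native peptide agonist; compound fluorescence can raise it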
The depositor's hits bear a star; & = joins results of further samples. An excerpt, so the mix of outcomes need not match the whole.

The opening 2 records (preview)
Every second line gives: NPYLR7 agonist	NPYLR7 agonist max-min
- CC(C)(C)OC(=O)n1ccc2c1[C@@H](C(=O)O)CCC2
→ 23.4	13.9
- COc1ccccc1OCCCCOc1cccc2ccccc12
→ 2.7	-0.6

The listing, from the start:
Every second line gives: NPYLR7 agonist	NPYLR7 agonist max-min
- CC(C)(C)OC(=O)n1ccc2c1[C@@H](C(=O)O)CCC2
→ 23.4	13.9
- COc1ccccc1OCCCCOc1cccc2ccccc12
→ 2.7	-0.6
- O=C(NC1CCN(CC2CC2)CC1)c1ccn[nH]1
→ -2.2	-2.5
- COC(=O)[C@@H]1C[C@@H](N(C)C)CN1C(=O)c1occc1C
→ 12.8	9.6
- CCOC(=O)C1=C(C)N=c2s/c(=C/c3ccc(-c4ccccc4Cl)o3)c(=O)n2C1c1ccccc1 (stereo not given)
→ -4.0	-10.5
- COc1cccc(C(=O)NCC(=O)N=Nc2c(O)n(Cc3ccccc3)c3ccccc23)c1
→ -0.9	-6.9
- Cc1ccc(C(=O)NCCc2nnc3ccc(SCC(=O)Nc4cc(C)on4)nn23)cc1
→ 3.3	-7.5
- COc1cc(C2c3[nH]c4ccccc4c3CCN2C(=O)CCC2CCCC2)ccc1Br (stereo not given)
→ -16.7	-27.2
- COCc1c(Br)c(C)nc(OCC(=O)N/N=C\c2ccc3c(c2)OCO3)c1C#N
→ 14.8	26.3
- CCCCCC(=O)N1CCN(c2cc(Oc3cc(C)ccc3Cl)ncn2)CC1
→ -10.3	-10.5

Next structures
Every second line gives: NPYLR7 agonist	NPYLR7 agonist max-min
- Cc1noc(COC(=O)c2cc(C(C)C)cc(C(C)C)c2O)n1
→ 5.3	2.6
- O=C(c1ccc(-c2ccc(-c3ccn[nH]3)cc2)o1)N1CCOCC1
→ 9.6	5.8
- COCC(C)NC(=O)C1CCN(Cc2cnc(-c3cccc(C)c3)nc2)CC1 (stereo not given)
→ 3.2	0.7
- Cc1cc(C(C)(C)C)ccc1OCC(=O)N=Nc1c(O)[nH]c2ccc(F)cc12
→ -7.6	-3.0
- C#C[C@]1(OC(C)=O)CC[C@H]2[C@@H]3CCC4=C[C@@H](OC(C)=O)CC[C@@H]4[C@H]3CC[C@@]21C
→ 13.5	7.9
- CC1CCC(NS(=O)(=O)CC(=O)Nc2ccc(N3CCCC3)cn2)CC1 (stereo not given)
→ 2.7	-2.3
- O=P1(NCc2ccccc2)C=C(c2ccccc2)OC(c2ccccc2)=C1
→ 20.9	12.1
- CCCCn1c(N)c(N(CC(C)C)C(=O)NCC)c(=O)[nH]c1=O
→ 9.9	14.5
- Cc1nc(Nc2ccccc2)c([N+](=O)[O-])c(Nc2ccccc2)n1
→ -1.4	-1.1
- COCc1c(Br)c(C)nc(OCC(=O)N/N=C\c2cccs2)c1C#N
→ -9.4	-15.0

Following part
Every second line gives: NPYLR7 agonist	NPYLR7 agonist max-min
- O=C(NC(c1ccccc1)c1cnccn1)C1CCN(Cc2cccc(Cl)c2)CC1 (stereo not given)
→ -0.8	9.0
- Cc1ccc2[nH]c(CCNc3nc(CCN)nc4ccccc34)nc2c1C
→ -5.2	-7.4
- CCCn1nccc1C(=O)N1[C@@H]2CC[C@H]1CN(C)C(=O)C2
→ 1.8	2.3
- CCCn1nccc1C(=O)N1CCC(c2[nH]ncc2-c2ccccc2C)CC1
→ 2.5	2.6
- O=C(CSc1ccc2nnc(-c3cccnc3)n2n1)Nc1ccc(OC(F)(F)F)cc1
→ 2.3	-0.9
- O=C(NNC(=O)C1Cc2ccccc2O1)c1cc(-c2ccccc2)on1 (stereo not given)
→ 11.1	5.9
- CCCCNc1ncnc2c1sc1nc(C)c3c(c12)CC(C)(C)OC3
→ 5.6	-0.1
- CNC(=O)C1CCCN(C(=O)c2oc3c(C)cccc3c2C)C1 (stereo not given)
→ 7.8	3.5
- CCCN(CC#Cc1ccccc1)C(=O)c1ccc(CO)cc1
→ -2.3	-11.7
- Cc1cccc(OCC(=O)N2CCC(n3c(=O)[nH]c4ccccc43)CC2)c1
→ 7.0	1.9

Additional records.
Every second line gives: NPYLR7 agonist	NPYLR7 agonist max-min
- CC[C@H]1OC(=O)[C@H](C)[C@@H](O[C@H]2C[C@@](C)(OC)[C@@H](O)[C@H](C)O2)[C@H](C)[C@@H](O[C@@H]2O[C@H](C)C[C@H](N(C)C)[C@H]2O)[C@](C)(O)C[C@@H](C)[C@@H]2N[C@@H](COCCOC)O[C@H]([C@H]2C)[C@]1(C)O
→ -16.3&-7.2	-19.9&-12.6
- Cc1[nH]n(-c2ccc(Cl)cc2)c(=O)c1C1=C(N2CCOCC2)C(=O)N(C2CCCCC2)C1=O
→ 1.3	-1.0
- COC(=O)c1ccc(CN2CCN(c3ccc(-c4ccccc4)cc3)C(=O)C2C)cc1 (stereo not given)
→ -2.5	-0.7
- NC(=O)NC(=O)CSc1ccc2ccccc2n1
→ -0.2	-2.2
- O=C(CCc1ccsc1)NC1CC(=O)N(CCc2ccc(F)cc2)C1 (stereo not given)
→ 8.2	2.1
- CCCCOc1ccc(C(=O)Nc2ccc(N3CCC(Cc4ccccc4)CC3)c(C(=O)NCCCOCC)c2)cc1
→ 1.9	-4.3
- COc1cccc(OCC(=O)c2ccc(NC(C)=O)cc2)c1
→ 7.9	6.0
- CCCCNC(=O)c1c(N)n(/N=C\c2cccc(O)c2)c2nc3ccccc3nc12
→ 2.6	-6.5
- Oc1ccc(CN2CCOc3c(O)cc(-c4cccc(Cl)c4)cc3C2)cc1
→ 24.3	15.8
- CCc1nc(NC(=O)N2CCN(c3ccncc3C)CC2)nn1C
→ -3.8	8.5

(next part)
Every second line gives: NPYLR7 agonist	NPYLR7 agonist max-min
- O=C(NCCn1nc(-c2ccco2)ccc1=O)c1cccc2ccccc12
→ 9.2	7.5
- O=C(NCCO)c1cc2cc([N+](=O)[O-])ccc2oc1=O
→ 9.8	9.6
- CCc1nnc(-c2cc3ccccc3n2CC(=O)Nc2c(C)cc(C)cc2C)o1
→ -1.1	-1.5
- CCOc1ccc(-n2c(C(CC)N(CC(C)C)C(=O)Nc3cccc(OC)c3)nc3ccccc3c2=O)cc1 (stereo not given)
→ -5.0	-4.8
- N#Cc1ccc(N2CCCCCC2CC(O)c2ccco2)nc1 (stereo not given)
→ 5.1	5.6
- O=C(c1nc2ncccn2n1)N1CCCC(c2[nH]ncc2Cc2ccccc2)C1 (stereo not given)
→ 18.0	3.9
- CN(C)C=NS(=O)(=O)c1ccc(Cl)cc1
→ 2.6	-0.3
- CCCN(CCC)C(=O)c1cc(-c2cccc(OC)c2)nc2cc(-c3ccccc3)nn12
→ 8.4	10.6
- CCOc1ccc(-n2c(=O)[nH]c3c(C(N)=O)nc(-c4ccc(C)o4)nc32)cc1
→ -11.5	-11.2
- CCOc1ccccc1N1CCN(C(=O)c2csc(CN(C(=O)Nc3ccc(OC)cc3)C(C)C)n2)CC1
→ 24.3	23.7

Exported as tab-separated lines: part of the list above.
molecule	NPYLR7 agonist	NPYLR7 agonist max-min
O=C(NCCn1nc(-c2ccco2)ccc1=O)c1cccc2ccccc12	9.2	7.5
O=C(NCCO)c1cc2cc([N+](=O)[O-])ccc2oc1=O	9.8	9.6
CCc1nnc(-c2cc3ccccc3n2CC(=O)Nc2c(C)cc(C)cc2C)o1	-1.1	-1.5
CCOc1ccc(-n2c(C(CC)N(CC(C)C)C(=O)Nc3cccc(OC)c3)nc3ccccc3c2=O)cc1 (stereo not given)	-5.0	-4.8
N#Cc1ccc(N2CCCCCC2CC(O)c2ccco2)nc1 (stereo not given)	5.1	5.6

Next section.
Every second line gives: NPYLR7 agonist	NPYLR7 agonist max-min
- COc1ccc(C(=O)C2CCCN(C(=O)c3cc4nc(C)cc(C)n4n3)C2)cc1F (stereo not given)
→ 4.1	0.1
- CC1(C)C2CC[C@@]1(CS(=O)(=O)N1CCCC(C(=O)NC3CCCC[C@H]3NC(=O)c3ccccc3)C1)C(=O)C2 (stereo not given in full)
→ 16.2	27.5
- CCCOc1c(C=C(C#N)C#N)cccc1OCC
→ 2.3	0.7
- O=C(Nc1ccc2c(c1)OC1(CCCC1)O2)c1ccccc1SCC1CCCO1 (stereo not given)
→ 1.7	1.5
- Cc1ccc2nc(N3CCOCC3)c(C=C3SC(=S)N(Cc4ccccc4)C3=O)c(=O)n2c1
→ 0.6	0.3
- COc1ccccc1OCCn1c(SCCOc2ccc(C)cc2)nc2ccccc21
→ 9.2	6.6
- CN(CC1Cc2ccccc2O1)c1nc(CCN)nc2ccccc12 (stereo not given)
→ 1.9	-1.5
- Cn1nc(C(C)(C)C)cc1C(=O)Nc1ccc2nc(-c3ccco3)nn2c1
→ -1.5	-13.1
- Cc1ccc(-c2nc3ncccn3c2NC2CCCCC2)cc1
→ -1.2	-2.4
- COC(=O)c1cc(NC(=O)c2cnn(C)c2C(F)(F)F)cc(C)c1C
→ 9.4	5.8

Additional results.
Every second line gives: NPYLR7 agonist	NPYLR7 agonist max-min
- Oc1cc(-c2cccc(Cl)c2)cc2c1OCCN(CC1CCCNC1)C2 (stereo not given)
→ -4.7	-6.4
- O=C(c1ccccc1F)N1CCSC1c1cccc(C(F)(F)F)c1 (stereo not given)
→ -4.6	6.4
- CCC1CCC(N(C(=O)c2cnc(C)s2)c2cccc(N3CCCC3)c2)CC1 (stereo not given)
→ -3.9	-3.1
- Clc1ccccc1-c1nc2c(NCC3CC3)nccc2[nH]1
→ -5.6	-11.2
- O=C1NCC2(CCCN(C(=O)CCc3n[nH]c4c3CCCC4)C2)O1 (stereo not given)
→ 19.8	6.2
- COc1cc(-c2ccc(OC)c(Cl)c2)nc(N)n1
→ 7.5	5.4
- O=C(CSc1ncnc2c1nnn2-c1ccccc1)N1CCC(Cc2ccccc2)CC1
→ 8.9	9.4
- O=C(CCN(CCc1ccccc1)c1nc(C2CC2)nc2cc(Cl)ccc12)N1CCCC1
→ 0.0	4.4
- O=C(Cn1nnc2sc3c(c2c1=O)CCCC3)NC1CCCCC1
→ -1.3	-4.7
- CCc1c(C)nc(-c2cccc(F)c2)nc1N1CCN(C(=O)Nc2ccc(C)cc2C)CC1
→ 17.3	14.1

The listing continues:
Every second line gives: NPYLR7 agonist	NPYLR7 agonist max-min
- COc1ccc(CC2CCN(C(=O)c3c(Cl)cccc3Cl)CC2)cc1
→ 20.2	17.6
- CCCNC(=O)/C(=C/c1ccc(Br)cc1)c1cccs1
→ 4.2	3.3
- Cc1nn(Cc2ccccc2)c2sc(C(=O)NCC(=O)N3CCCC3)cc12
→ 1.3	8.0
- CCOc1ccc(-n2nnnc2CNC(=O)NCCCl)cc1
→ 0.3	0.8
- Oc1cccc(-c2cc(C3(CNCCCN4CCOCC4)CC3)ccn2)c1
→ 11.5	21.7
- COc1ccc(C2CC(=O)c3cnc(NCCN4CCOCC4)nc3C2)cc1 (stereo not given)
→ 6.6	-0.1
- CCCN1CC(NC(=O)c2cccnc2N2CCOCC2)CC1=O (stereo not given)
→ -8.7	-12.3
- COc1cc(OC)cc(C2SCCN2C(=O)Nc2ccccc2Br)c1 (stereo not given)
→ 23.9	22.0
- O=C(Nc1nccs1)c1ccc(N2C(=O)C3C4C=CC(C4)C3C2=O)cc1 (stereo not given)
→ 2.2	2.1
- CCNC(=S)NN=Cc1ccco1
→ -7.2	-7.7

Further entries.
Every second line gives: NPYLR7 agonist	NPYLR7 agonist max-min
- N=C1/C(=C\c2ccco2)C(=O)N=C2SC(C34CC5CC(CC(C5)C3)C4)=NN12
→ -2.3	-2.7
- Cc1ccc(CN(Cc2ccccc2)CC(O)COC(C)C)s1 (stereo not given)
→ 13.6	19.0
- Cc1ccc(S(=O)(=O)NCCc2nnc3ccc(SCC#N)nn23)cc1
→ -11.0	-16.0
- CC(C)N(C(=O)CSc1nnc(-c2ccncc2)n1-c1ccc(F)cc1)C(C)C
→ -3.2	-4.4
- CCCCCCCC(=O)NCc1ccc(-c2ncc(-c3cc(OC)ccc3OC)[nH]2)cc1
→ 2.2	0.6
- CC(=O)Nc1ccc(SCC(=O)c2ccc(Cl)cc2)nn1
→ 3.1	2.4
- C#CCOCC(O)CN(CCOC)Cc1cc(OC)cc(OC)c1 (stereo not given)
→ 17.0	26.2
- Cn1ncc(Cl)c1C(=O)N/N=C\c1ccc(CNC(=O)C(=O)Nc2ccc(Cl)c(Cl)c2)o1
→ 7.8	9.4
- O=C(Nc1ccnn1C1CCN(C(=O)c2ccsc2)CC1)c1ccc2c(c1)OCO2
→ 1.8	0.5
- Cc1c(C)n2c3c(=O)n(CCc4ccccc4)c(=O)n(C)c3nc2n1CCCN1CCOCC1
→ 6.9	3.5

Further records follow:
Every second line gives: NPYLR7 agonist	NPYLR7 agonist max-min
- CC(=O)Oc1ccc(C(=O)N2CCN(c3ccc(F)cc3)CC2)cc1
→ 0.4	-2.0
- C=CCNC(=O)c1sc(=S)n(CC)c1N
→ 3.1	1.6
- CCSc1nnc(SCC(=O)c2c(N)n(C)c(=O)n(C)c2=O)s1
→ 4.7	9.4
- CSCC[C@H](NC(=O)[C@H](Cc1c[nH]c2ccccc12)NC(=O)[C@H](C)NC(=O)OC(C)(C)C)C(=O)N[C@@H](CC(=O)O)C(=O)N[C@@H](Cc1ccccc1)C(N)=O
→ 8.5	13.0
- COC(=O)C1CCCN1C(=O)C1(Oc2ccc(C)cc2)CCNCC1 (stereo not given)
→ 10.1	8.3
- COc1cc(C(=O)N2CC[C@H](CO)[C@H](O)C2)ccn1
→ -1.2	-1.6
- Cc1cccc(NC(=O)c2ccc3c(c2[N+](=O)[O-])C(=O)c2ccccc2C3=O)c1
→ 1.0	-5.0
- Cc1nn(CC(=O)Nc2c(F)c(F)c(F)c(F)c2F)c(=O)c2cccn12
→ 2.0	-1.2
- CCOC(=O)C1(Cc2cccc(Cl)c2)CCCN(C(=O)CCn2cnnn2)C1 (stereo not given)
→ -2.0&12.0	-2.4&14.3
- CC1CN(C(=O)NCC#Cc2ccccc2)CC(c2ccsc2)O1 (stereo not given)
→ -1.1	-2.0
- O=c1ccc(-c2ccco2)nn1Cc1ccc(Br)cc1
→ 5.6	0.1
- CC(OC(=O)CCNC(=O)Nc1ccccc1)C(=O)N1CCCCC1 (stereo not given)
→ 7.8	3.4
